# From PubChem BioAssay
# MT1-MMP reporter: inhibitors of MT1-MMP promoter transcription, cell-based, luciferase reporter, luminescence (AID 618); MT1-MMP promoter luciferase reporter cells, luminescence; calls from a first round at 10 µM; hits with a dose series show EC50 in µM; 0.62% of 87,000 active;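 active = over half of the reporter light lost at 10 µM or EC50 under 50 µM; inactive = the rest and hits that failed the dose series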;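 note: actives suppress MT1-MMP promoter-driven transcription so potencies describe inhibitors; HT1080 fibrosarcoma cells; overnight exposure; toxic or luciferase-blocking compounds were not removed from the actives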
# Hsc70 ATP site: Hsc70 inhibitors, probe displacement, primary screen, biochemical, fluorescence polarization (AID 568); Hsc70 fluorescence polarization, probe displacement; higher % means a stronger effect; strong numbers were not always called active; displacement, % at 20 µM, or IC50 in µM where a hit was titrated; 83,000 tested, under 10 active;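 active = displacement above 50% without optical interference and an IC50 on retest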;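 note: ATPase domain with a fluorescein-tagged ATP probe; 0% = vehicle and 100% = excess ADP; read after one hour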
# WNV protease inh: inhibitors of WNV NS2B-NS3 protease, primary screen, biochemical, fluorogenic substrate. 0.18% of 65,000 active. fluorogenic substrate Ex360/Em465; active compounds read low. z-score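 (tested at a level between 10 and 100 µM)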. AID 577, 2007;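 active = z-score at -3 or under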;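 note: score is relative to mean and spread of the compound wells of a plate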
# Target sequence (P06935 1371-1501 limits assumed): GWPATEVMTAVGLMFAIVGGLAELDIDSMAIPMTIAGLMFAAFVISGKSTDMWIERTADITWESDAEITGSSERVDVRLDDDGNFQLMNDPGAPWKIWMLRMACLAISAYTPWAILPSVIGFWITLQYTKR
# Target sequence (P06935 1502-1679 limits assumed): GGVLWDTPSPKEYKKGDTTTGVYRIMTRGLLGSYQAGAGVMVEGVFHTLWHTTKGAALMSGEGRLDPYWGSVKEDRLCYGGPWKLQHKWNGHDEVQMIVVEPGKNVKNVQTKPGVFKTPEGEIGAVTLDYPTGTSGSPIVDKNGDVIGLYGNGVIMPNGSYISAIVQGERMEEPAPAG
# * marks the source's active call; other numbers are inactive results; i = inactive; · = no result given.
SMILES | WNV protease inh | MT1-MMP reporter | Hsc70 ATP site
CCn1c(=O)c(C(=O)Nc2ccccc2C)c(O)c2ccccc21 | · | i | 5.9%
Cc1nc(Nc2ccc3c(c2)OCCO3)c2nnn(Cc3ccccc3Cl)c2n1 | 1.4 | i | -13%
Cc1ccc(OCC(=O)NCc2ccco2)cc1C | -0.62 | i | 0.8%
CCOC(=O)N1CCC(N2Cc3cccc(C(=O)NCC4CCN(CC(C)C)C4)c3C2=O)CC1 (stereo not given) | -0.21 | i | -1.9%
Cc1nc(C)c(-c2csc(Nc3cccnc3)n2)s1 | -0.03 | i | 6.8%
CC(=O)NC1CC2CCC(C1)N2Cc1ccc(C)cc1 (stereo not given) | -1 | i | -1.2%
COc1ccc(Nc2nc(CC(C)=O)ns2)cc1OC | -0.88 | i | -1.8%
COc1ccccc1C1/C(=C(/O)c2ccccc2)C(=O)C(=O)N1CC(C)C (stereo not given) | -0.57 | i | -2.2%
CCC(=O)N1C(C(=O)N2CCCC2)CSC1c1ccc(OC)cc1 (stereo not given) | -0.04 | i | 0.0%
O=C(O)c1ccccc1OCCOCCOc1ccccc1C(=O)O | -0.45 | i | 2.3%
O=C(O)CN1C(=O)SC(Nc2ccc(C(=O)O)cc2)C1=O (stereo not given) | · | i | 4.4%
CCOC(=O)c1sc(-c2ccc(Br)cc2)cc1N | · | i | -5.3%
COc1cccc(C(=O)Nc2nc3ccccc3[nH]2)c1 | · | 0.96µM* | 0.5%
CCN1CCCC1CNC(=O)CSCc1nc(-c2ccccc2C)oc1C (stereo not given) | 2 | i | 0.9%
Cc1cccc(CN2CCC(CNC(=O)C3CCCN(S(=O)(=O)c4cnc[nH]4)C3)CC2)c1 (stereo not given) | -0.56 | i | -1.0%
CCOc1cc2[nH]c(=S)n(CCOC)c(=O)c2cc1OCC | 1.1 | i | -2.0%

# Complete entries from above. Order of screens: WNV protease inh | MT1-MMP reporter | Hsc70 ATP site
# `Cc1cccc(CN2CCC(CNC(=O)C3CCCN(S(=O)(=O)c4cnc[nH]4)C3)CC2)c1` (stereo not given) in the list: -0.56 | i | -1.0%
# `O=C(O)CN1C(=O)SC(Nc2ccc(C(=O)O)cc2)C1=O` (stereo not given) in the list: · | i | 4.4%
# `CCN1CCCC1CNC(=O)CSCc1nc(-c2ccccc2C)oc1C` (stereo not given) in the list: 2 | i | 0.9%
# `CCC(=O)N1C(C(=O)N2CCCC2)CSC1c1ccc(OC)cc1` (stereo not given) in the list: -0.04 | i | 0.0%

# Additional structures follow:
SMILES | WNV protease inh | MT1-MMP reporter | Hsc70 ATP site
COC(CNC(=O)c1ccc2c(c1)nc(C)n2-c1cccc(F)c1)OC | · | i | -6.6%
CCCn1c(N)c(C(=O)CSc2nnc(C)n2Cc2ccccc2)c(=O)n(C)c1=O | · | i | 3.6%
COc1ccc(-c2cc(C(=O)Nc3cc(OC)c(OC)c(OC)c3)no2)cc1OC | 0.57 | i | -4.7%
O=C(CSc1nnc(-c2ccccc2NC(=O)c2ccccc2)o1)OC1CCCCC1 | · | i | -2.5%
CCOC(=O)C1CCN(C(=O)CSC2=NCCS2)CC1 | 2.2 | i | 0.1%
O=C(Nc1ccc(Cl)c(Cl)c1)C1=Cc2ccccc2OC1 | · | i | 7.4%
COc1ccc(OCC(=O)c2c(O)c3ccccc3oc2=O)cc1 | 0.61 | i | 2.9%
COc1ccc(-c2noc(CCC(=O)NC3CCCCC3)n2)cc1OC | -0.18 | i | 5.0%
COc1ccccc1NC(=O)CSc1ncn(-c2ccccc2)n1 | · | i | 0.6%
C1CN(c2nc3nonc3nc2N2CCOCC2)CCO1 | 0.33 | i | -5.8%
Cc1cc(NC(=O)CSc2nc(-c3ccccc3)cs2)no1 | 0.63 | i | -3.0%
Nc1nonc1-c1nc2ccccc2[nH]1 | 1.6 | i | 4.4%
Cc1cc(C)n(CC(=O)n2c3c(c4ccccc42)CCCC3)n1 | 0.71 | i | -0.5%
CCCS(=O)(=O)N1CCCC(C(=O)N2CCC(Cc3ccccc3)CC2)C1 (stereo not given) | 0.06 | i | 4.8%
COc1ccc(NC(=O)c2cc3ccccn3n2)cc1 | -0.42 | 4.4µM* | -1.9%
CC(=O)NC1(C(F)(F)F)C(=O)NC(C)=C1C#N (stereo not given) | -0.25 | i | 3.2%
O=C(OC1CCCCC1=O)c1cccc(S(=O)(=O)NCc2ccccc2)c1 (stereo not given) | · | i | 0.7%
COc1ccccc1-n1c(=O)[nH]c2c(C(N)=O)nc(-c3cccnc3)nc21 | 0.07 | i | 0.9%
Cc1ccc(C(=O)c2coc3ccc(O)c(CN4CCN(C)CC4)c23)cc1 | -0.29 | i | -0.4%
Cn1c(=O)c2c(nc(Br)n2CCc2ccccc2)n(C)c1=O | 1.2 | i | -0.7%
CCS/C(N)=N/N=C/c1cc(C)ccc1O | · | i | -4.3%
COc1ccc(C(c2sc3ncnn3c2O)N2CC(C)OC(C)C2)cc1OC (stereo not given) | 0.11 | i | -3.2%
O=S(=O)(Nc1nc2c(s1)CCCC2)c1ccc2ccccc2c1 | · | i | 2.5%
COc1ccc2c(Cl)c(-c3nnc(SCC(N)=O)n3C)sc2c1 | 0.15 | i | 1.0%
Cc1ccc(S(=O)(=O)NC(CC(=O)O)c2ccco2)cc1 (stereo not given) | 1.3 | i | -0.5%
N#Cc1nc(-c2ccco2)oc1NCCN1CCOCC1 | 0.91 | i | -0.6%
COc1ccc(S(=O)(=O)CCC(=O)N2CC(=O)N(CCc3ccccc3)C(=O)C2)cc1 | 0.62 | i | -2.4%
COCCOC(=O)C1=C(N)OC2=C(C(=O)CC(C)(C)C2)C1c1cccnc1 (stereo not given) | 0.18 | i | -3.3%
CCOC(=O)c1c(C)n(C)c2ccc(OCC(O)CN3CCN(C)CC3)cc12 (stereo not given) | 0.16 | i | 6.8%
O=c1c2ccccc2nc2c3ccccc3c(NCc3ccco3)nn12 | · | i | -4.3%
CCC(C)N(C(=O)c1csnn1)C(C(=O)NCc1ccc(F)cc1)c1ccco1 (stereo not given) | -0.45 | i | -7.2%
CCC(=O)N1CCN(C(C)=O)C1c1ccccc1 (stereo not given) | -0.73 | i | 3.1%
COc1ccccc1NC(=S)NCc1ccco1 | · | i | 3.7%
Cc1ccc(N(C(=O)Cn2nnc(-c3ccc(C)o3)n2)C(C(=O)NC2CCCC2)c2ccco2)cc1 (stereo not given) | -0.86 | i | 4.1%
[N-]=[N+]=CC(=O)CNC(=O)[C@@H](Cc1ccccc1)N1C(=O)c2ccccc2C1=O | 0.84 | i | 5.9%
CC1=NC(C)Cc2ccccc21 (stereo not given) | 0.66 | i | -0.4%
CC(=O)c1ccc(NS(=O)(=O)c2ccc(CC(C)C)cc2)cc1 | · | i | -4.5%
O=C(NO)C1CC2C=CC1C2 (stereo not given) | -1.8 | i | -3.6%
CCN1CCN(c2nc(-c3ccccn3)nc3ccccc23)CC1 | · | i | -2.4%
COC(=O)Nc1ccc(OCc2ccccc2)cc1 | -0.15 | i | -0.5%

# The final two records of the part above open the next one.
SMILES | WNV protease inh | MT1-MMP reporter | Hsc70 ATP site
CCN1CCN(c2nc(-c3ccccn3)nc3ccccc23)CC1 | · | i | -2.4%
COC(=O)Nc1ccc(OCc2ccccc2)cc1 | -0.15 | i | -0.5%
Cc1cc(Cl)c(S(=O)(=O)NCC2CCCO2)cc1OCC(N)=O (stereo not given) | -0.77 | i | -2.1%
CCC(=O)N1CCN(c2ccc(NC(=O)c3ccco3)cc2)CC1 | 0.83 | i | 2.4%
COC(=O)c1cccc(-n2cnnn2)c1 | · | i | 2.3%
COC(=O)n1c(=O)oc2cc(S(=O)(=O)N3CCCCC3)ccc21 | -0.82 | i | -0.2%
Cc1cc(N2CCN(c3ccccn3)CC2)n2c(nc3ccccc32)c1C#N | 1.9 | i | -2.0%
Cc1ccccc1CN1CCN(S(C)(=O)=O)CC1 | · | i | 2.6%
CCc1ccccc1NC(=O)c1cc(-c2cccc(O)c2)on1 | 0.67 | i | -2.2%
Cc1ccc(C(=O)N(CC(=O)NC2CCCC2)Cc2cccs2)s1 | -0.4 | i | 4.1%

# Copied from the list.
# `COC(=O)c1cccc(-n2cnnn2)c1` – Hsc70 ATP site: 2.3%
# `CCC(=O)N1CCN(c2ccc(NC(=O)c3ccco3)cc2)CC1` – WNV protease inh: 0.83

# The results go on:
SMILES | WNV protease inh | MT1-MMP reporter | Hsc70 ATP site
CCCn1c(SCC(=O)Nc2ccc(OCC)cc2)nnc1C(C)C | · | i | 3.6%
CC(C)C(=O)c1cn(CC(=O)NCc2ccco2)c2ccccc12 | · | i | -1.7%
CSc1ccccc1NC(=O)COc1ccc(S(=O)(=O)N2CCCC2)cc1 | -0.59 | i | -12%
CCSc1nnc2c(n1)OC=Nc1ccc(Br)cc1-2 | 0.5 | i | 2.9%
Cc1nc(NC(C)C)c2oc3ccccc3c2n1 | 0.12 | i | 1.8%
COc1ccc(C(=O)Oc2cccnc2)cc1 | · | i | -4.3%
O=c1c2cn[nH]c2nc(SCc2ccc3c(c2)OCCO3)n1-c1ccccc1 | 2.1 | i | -6.2%
Cc1ccc(C2C(C#N)=C(N)SC(N)=C2C#N)c(C)c1 | -1 | i | -99%
CC(C)(C)OC(=O)N1CCCC1C(=O)NC(Cc1ccccc1)C(=O)O (stereo not given) | -0.1 | i | 5.9%
CCN(CC)C(=O)C1CCCN(C/C(C)=C/c2ccccc2)C1 (stereo not given) | 1.9 | i | 2.7%
Cc1nnc(SCC(=O)Nc2cc(C(F)(F)F)ccc2N2CCOCC2)o1 | -0.9 | i | 7.4%
CCOc1cc(C)c(Cl)cc1S(=O)(=O)NCc1ccc2c(c1)OCO2 | -1.3 | i | -3.8%
Cc1nc2cc(NC(=O)N3CCN(c4ccccn4)CC3)ccc2o1 | -1.5 | i | 2.9%
CCN(CC)CCn1c(OC)cc(=O)[nH]c1=O | -0.99 | i | -1.1%
COc1ccccc1OCC(=O)N1CC2(C)CC1CC(C)(C)C2 (stereo not given) | · | i | -4.2%
Fc1ccc(Br)cc1C1C=C(c2ccc(Br)cc2)Nc2ncnn21 (stereo not given) | · | i | -0.4%
Cc1ccc2nsnc2c1S(=O)(=O)NC1CC1 | · | i | 4.5%
CC(C)C(=O)Nc1ccc(NC(=O)c2cccs2)cn1 | 0.15 | i | -3.3%
CCN(CC)S(=O)(=O)c1ccc2[nH]cc(C(=O)NCCC3=CCCCC3)c(=O)c2c1 | -0.37 | i | -4.1%
CSc1nc(NC(C)=O)nc(C)c1Cl | -0.24 | i | -8.5%
Cc1ccc2[nH]c(=O)c(-c3noc(C(C)C)n3)cc2c1 | -0.11 | i | 1.2%
CC1(C)CC(=O)C2=C(C1)NC(SCC(=O)Nc1ccccc1)=C(C#N)C21CCCCC1 | 2.1 | i | 4.4%
Cc1ccc(-c2csc3nc(C)n(-n4cccc4)c(=O)c23)o1 | -1 | i | 2.3%
O=S(=O)(NCCC1=CCCCC1)c1cccc2nsnc12 | -0.04 | i | -5.1%
COCCNC(=O)c1c(N)n(/N=C/c2cccs2)c2nc3ccccc3nc12 | 0.05 | i | -3.8%
Cc1noc(C)c1COC(=O)c1cccc(S(=O)(=O)N2c3ccccc3CC2C)c1 (stereo not given) | -0.1 | i | 2.8%
COc1cccc(S(=O)(=O)NCc2ccc(C(=O)NCc3ccco3)cc2)c1 | -0.54 | i | 6.8%
O=C(NCCCO)c1nc2ccccc2s1 | 0.8 | i | -0.6%
c1ccc(-c2noc(CN3CCN(c4ccccc4)CC3)n2)cc1 | 0.2 | i | 2.4%
Cc1ccc(-c2nc(CS(=O)CC(=O)NCCN3CCOCC3)c(C)o2)cc1 (stereo not given) | -0.78 | i | 3.0%
CC(C)CCNC(=O)C1CCN(c2nc3ccccc3o2)CC1 | -1 | i | 5.6%
O=C(Nc1cccnc1)c1ccccc1Oc1ccccc1 | 1 | i | -0.2%
Cc1ccccc1NS(=O)(=O)c1ccc2[nH]cc(C(=O)NCCCN3CCOCC3)c(=O)c2c1 | -0.16 | i | 0.9%
O=C(NCc1ccncc1)Nc1ccc(F)cc1 | 0.37 | i | 4.2%
CN(CC(=O)Nc1sccc1C#N)C1CCCCC1 | -0.56 | i | -4.7%
CCOc1ccc2cc(C#N)c(SCC(=O)N3CCCC3)nc2c1 | 0.11 | i | 2.9%
CN1CCc2c(n(CC(O)CN3C(=O)c4ccccc4S3(=O)=O)c3ccccc23)C1=O (stereo not given) | -0.7 | i | 1.2%
COc1ccc(Cl)cc1NC(=O)c1cnc2n(c1=O)CCS2 | 0.51 | i | -2.9%
O=C(c1nnc(Cc2ccc(Cl)cc2)o1)N1CCc2ccccc2C1 | 0.36 | i | -1.8%
Cc1ccc(S(=O)(=O)c2c(COC(=O)c3ccccc3Cl)c(-c3ccccc3)nn2C)cc1 | · | i | 0.8%
COc1ccc(O)c(-c2c(-c3ccc(Cl)cc3)n[nH]c2C)c1 | -0.42 | i | -5.7%
Cc1ccc(C)c(Cn2c(CN(C)Cc3ccccc3)nc3c2c(=O)n(C)c(=O)n3C)c1 | -0.9 | i | 4.4%
Cc1ccc(S(=O)(=O)N2CCN(C(=O)CSc3nnc(-c4ccco4)o3)CC2)cc1 | 0.86 | i | 3.5%
CC(NC(=O)c1csc2ccccc12)C1CCCO1 (stereo not given) | -0.29 | i | -2.1%
Cc1c(N)cccc1-c1nc2ccccc2[nH]1 | · | i | 3.3%
OC(CN1CCN(c2ccccc2)CC1)c1c[nH]c2ccccc12 (stereo not given) | -1.4 | i | -5.8%
COc1ccc(/C=N/n2cnnc2)cc1COc1ccccn1 | -0.88 | i | -4.8%
CCCCSc1nnc(-c2cc(Br)ccc2N)c(=O)[nH]1 | 0.46 | i | -1.0%

# Compounds were not picked by outcome; 0.8% or so of the library scored in one or more.
